Screening results (PubChem)
Biofilm kill mix = mixture kills Candida albicans biofilm cells; C. albicans biofilm persisters + clotrimazole, fluorescence viability; primary screen in compound mixtures of four per well; inhibition, % at 7.6 µM; 120,000 tested, 0.02% active;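 active = inhibition above 30.3% in the primary screen of four-compound pools, then above 30% when the compound was retested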;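 note: compounds exposed to preformed 24 h biofilms for 48 h; the number belongs to the whole pool; some results filed as inactive read as strong as hits; inactives centre near 12; 0% = biofilm with clotrimazole alone and 100% = kill control; retested singly at about 60 µM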
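Probe or stimulus – Clotrimazole 50 µg/mL co-treatment · System – C. albicans biofilms · Schedule – 24 h biofilm formation, then 48 h compound exposure, 37 °C · Evaluation – percent inhibition of biofilm viability · Technique – 2-h Alamar Blue fluorescence, 535/590 nm excitation/emission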
Active calls of the source: *. An excerpt; the hit share may differ from the screen's.

molecule	Biofilm kill mix
NC(=O)C1=C[C@@H](c2ccc(C(F)(F)F)cc2)C[C@@H](OCc2ccc(CO)cc2)O1	9.1
Cc1ccc(C(=O)c2cc([N+](=O)[O-])ccc2N2CCCCC2)c(C)c1	23.5
CCn1cc(-c2cc(C(=O)O)c3ccccc3n2)c(C)n1	19.2
CN(C)c1ccc(C(CNS(=O)(=O)c2ccc3ccccc3c2)c2c[nH]c3ccccc23)cc1 (configuration not stated)	8.1
CCOC(=O)Cc1cc(=O)[nH]c(/N=C(\N)Nc2ccc(OC)cc2)n1	2.7
CCOC(=O)c1ccc(NC(=S)N(CCCN2CCCCCC2)Cc2ccco2)cc1	21.8
Fc1ccccc1Cc1noc(CN2CCN(Cc3ccc4c(c3)OCO4)CC2)n1	11.2
O=C(N/N=C/c1cccc(Oc2ccccc2)c1)c1ccncc1	8.9
CC(=O)CCC(=O)OCC(=O)Nc1ccc(SC(F)F)cc1	15.6
Cc1nn(Cc2ccc(F)cc2)c2sc(C(=O)Nc3nccs3)cc12	20.8
CCN(CC)CCCN(Cc1cc2cc3c(cc2[nH]c1=O)OCO3)C(=S)Nc1ccccc1OC	26.4
CCOc1ncccc1C(=O)OCC(=O)N(CC(C)C)C1CCS(=O)(=O)C1 (configuration not stated)	7.7
Clc1nc2c(-c3ccccc3)nnn2c2ccccc12	18.5
C/C(=C\C(=O)c1ncc(C(F)(F)F)cc1Cl)N(C)C	10.7
Clc1ccc(OCCOCCN2CCc3ccccc3C2)c(Cl)c1	1.4
CC(C)CN1CN(Cc2ccccc2)CNC1=S	3.9
CCN(C(=O)CN1CCc2ccccc21)c1c(N)n(Cc2ccccc2)c(=O)[nH]c1=O	1.4
CC1(C)Cc2nc3sc(C(=O)O)c(N)c3cc2CS1	24.6
CCN(CC)S(=O)(=O)c1ccc2nc(CCl)[nH]c2c1	14.1
Cc1oc(C(N)=O)nc1-c1ccccc1	17.5
CN1C2C=C3C(C#N)=C(N)C(C#N)(C#N)C(c4ccc(Br)cc4)C3C1CC2 (configuration not stated)	15.8
COC(=O)N/N=C/c1ccc(Oc2ccccc2)cc1	18.3
COc1ccc(C(=O)CC(c2ccccc2)S(=O)(=O)c2ccc(C)cc2)cc1 (configuration not stated)	3.8
Cc1ccc(N(CC(=O)O)S(C)(=O)=O)cc1	12.9
CN(Cc1nccn1C)C(=O)CC1C(=O)NCCN1CC(c1ccccc1)c1ccccc1 (configuration not stated)	22.7
CCCOc1ccc(CCCN=C(N)N)cc1Cl	24.1
O=C(N/N=C/c1ccc([N+](=O)[O-])o1)C1CC1	12.3
O=C1CC(c2ccc(Cl)c([N+](=O)[O-])c2)c2ccc3ccccc3c2N1 (configuration not stated)	15.7
CS(=O)(=O)c1cnc2c(-c3ccsc3)cnn2c1N	5.2
NC(=S)N/N=C1\CCSc2ccc(Cl)cc21	2.7
CCCc1cc(=O)[nH]c(SCC(=O)Nc2ccc(Br)cc2Br)n1	13.9
COc1ccc(-n2c(SCC(=O)Nc3cc(C(=O)O)ccc3C)nc3ccccc3c2=O)cc1Cl	16.7
COC(=O)c1ccccc1NC(=O)Nc1nnc(N2CCCCC2C)s1 (configuration not stated)	6.6
CSc1ccc(CN(C)CC(=O)NCc2ccc(F)cc2)cc1	19.5
COc1cccc(C2CCCCN2Cc2nc(-c3ccc(C)o3)oc2C)c1 (configuration not stated)	16.1
Cc1ccccc1C(=O)c1c[nH]c(C(=O)N2CCN(c3ccccc3F)CC2)c1	11.6
CCN(CC)c1ccc2cc(C#N)c(=O)oc2c1	11.3
CC1CC(C)CN(C(=O)CSc2nc(N)cc(=O)[nH]2)C1 (configuration not stated)	-2.5
Cc1cccn2c(=O)c(/C=N/O)c(N3CCOCC3)nc12	30.4
C/C(=N\NC(=S)NC(C)C)c1cccc([N+](=O)[O-])c1	20.0
COc1ccc(Cl)cc1S(=O)(=O)NC1CC(C)(C)NC(C)(C)C1	11.3
FC(F)Oc1ccc(NC(=S)NCCc2ccccn2)cc1	6.2
CCCc1[nH]n(-c2ccc([N+](=O)[O-])cc2)c(=O)c1C(C)=NCc1ccncc1	27.6
O=C(Nc1c(C(=O)c2ccccc2)oc2ccccc12)c1cc(-c2ccccc2O)n[nH]1	13.8
O=c1c(C(c2ccc(Br)cc2)c2c(O)nc3n(c2=O)CCCS3)c(O)nc2n1CCCS2	19.7
COC(=O)c1cn(C(=O)c2cccc(C)c2)c2ccccc12	-2.2
O=C(CCSc1ccc(Cl)cc1)NCc1ccccn1	19.6
O=S(=O)(NC1c2cccc3cccc(c23)C1Sc1ncccn1)c1ccc(Cl)cc1 (configuration not stated)	9.4

Reformatted: entries from further up
> COc1ccc(C(=O)CC(c2ccccc2)S(=O)(=O)c2ccc(C)cc2)cc1 (configuration not stated)
  Biofilm kill mix = 3.8

> NC(=S)N/N=C1\CCSc2ccc(Cl)cc21
  Biofilm kill mix = 2.7

> Fc1ccccc1Cc1noc(CN2CCN(Cc3ccc4c(c3)OCO4)CC2)n1
  Biofilm kill mix = 11.2

> Clc1nc2c(-c3ccccc3)nnn2c2ccccc12
  Biofilm kill mix = 18.5

(list continues)
molecule	Biofilm kill mix
C/C=C/C(=O)N1CC2(CC(c3cccc(NC(=O)CCCCC)c3)=NO2)C[C@H]1C(N)=O (some centres not stated)	10.9
CCCCC1(O)CC(C(F)(F)F)=NN1C(=O)COc1ccccc1 (configuration not stated)	11.8
Cc1ccc(-c2nn(-c3ccccc3)cc2C(=O)Nc2ccc(C)c(S(=O)(=O)N3CCOCC3)c2)cc1	6.2
CC(C)OC(=O)/C(=C\c1ccccc1)NC(=O)c1ccccc1	-3.7
CCc1ccc(N2CCN(C(=O)N3CCOCC3)CC2)cc1	-9.8
CN(C)c1ccc(NC(=O)CSc2n[nH]c(-c3ccco3)n2)cc1	6.1
Cc1cc(C)n(CCC(=O)N/N=C/c2ccccc2O)n1	13.6
CC(C(=O)Nc1ccc(S(=O)(=O)N2CCCCC2)cc1)N1CCN(c2ccccn2)CC1 (configuration not stated)	16.9
CC(=O)CSc1nc2ccccc2o1	11.6
Clc1ccc(-n2cc(COCc3ccccc3)nn2)cc1	15.1
Cc1cc(C(C)(C)C)cc(C)c1N	10.3
CCOCCCNC(=O)C(c1ccc(OC)cc1)N(Cc1cccs1)C(=O)CNC(C)=O (configuration not stated)	20.3
CNC(=S)N/N=C/c1cn(CCOc2cccc(OC)c2)c2ccccc12	8.7
O=C1CSC(c2cccc([N+](=O)[O-])c2)N1c1ccccc1 (configuration not stated)	20.2
CNC(=O)N(O)C1N(/N=C/c2cccnc2)C(=S)SC1(C)C (configuration not stated)	13.2
Oc1c(CN2CCN(c3ccccc3)CC2)cc(Br)c2cccnc12	16.6

2 entries drawn at random from the list so far:
molecule	Biofilm kill mix
CNC(=S)N/N=C/c1cn(CCOc2cccc(OC)c2)c2ccccc12	8.7
CNC(=O)N(O)C1N(/N=C/c2cccnc2)C(=S)SC1(C)C (configuration not stated)	13.2

Continued.
molecule	Biofilm kill mix
CCC12C(=O)C(CC)(C(c3ccccc3)=C1c1ccccc1)[C@@H]1C(=O)N(c3ccc(C)cc3)C(=O)C12 (some centres not stated)	18.8
Cc1cc(N(CCO)CCO)ccc1N=Nc1cc(F)ccc1F	1.7
COc1ccccc1NC(=O)Cc1noc(CSc2nnc(C)n2C)n1	1.2
CC(C)N1C(=O)CCC1C(=O)N1CCN(c2ccccn2)CC1 (configuration not stated)	0.5
CC(C)(C)S(=O)(=O)/C(C#N)=N/Nc1ccc(S(C)(=O)=O)cc1	15.0
Cc1ccccc1N1C(S)=C(C#N)C(=O)NC12CCCCC2	13.7
Cc1cccc(/N=C/c2sc3ccccc3c2O)n1	21.0
COc1ccc(/C=C/C=N/NC(=O)COc2ccc(OC)cc2)cc1	15.6

Additional structures
compound | Biofilm kill mix
CC(OC(=O)c1ccc2c(=O)n3c(nc2c1)CCCCC3)C(=O)Nc1ccc(F)cc1Cl (configuration not stated) | 7.6
CC(Cc1c[nH]c2ccccc12)NC(=O)OCCCl (configuration not stated) | 8.4
O=C(OCC(=O)N1CCc2ccccc21)c1ccc[nH]c1=O | 6.1
COc1ccc(Cl)c2c1[nH]c1nc(SCc3cccnc3)nnc12 | 14.9
COc1ccc(S(=O)(=O)CCC(=O)Nc2cccc(OC)c2)cc1 | 98.0
N=c1n(CCCOc2ccc(F)cc2)c2ccccc2n1CC(N)=O | 10.8
Cc1nc2ccccc2n1CC(=O)NC(C)C1CC2CCC1C2 (configuration not stated) | 15.7
Cc1ccc(-c2nc(N)sc2-c2ccc(C)cc2)cc1 | 18.8
CCC(C)NC(=O)CCc1nc2ccccc2n1-c1ccccc1 (configuration not stated) | 19.6
CCn1c(=O)c2cc(C(=O)N(C)c3ccccc3F)sc2c2ccccc21 | 11.1
CC(C)(C)NC(=O)NC(=O)COC(=O)Cc1c(F)cccc1Cl | 7.8
COC(=O)c1c(NC(=O)Cc2ccccc2)sc2c1C(C(=O)OC)CC2 (configuration not stated) | 5.0
Cc1cccn2c(=O)c(C=O)c(Cl)nc12 | 21.4
Cc1[nH]nc(S(=O)CC(=O)O)c1[N+](=O)[O-] (configuration not stated) | 13.0
C=CC#CC1(O)CC(C)N(C)CC1C (configuration not stated) | 7.5
Oc1ccccc1N=Nc1ccccc1O | 11.6
NS(=O)(=O)c1ccc(CCNC(=O)CSc2nc3ccccc3c3nc(CCN4CCCCC4)nn23)cc1 | 13.8
Cc1ccccc1CO/N=C/c1[nH]ncc1Br | 20.8
Cc1ccc(S(=O)(=O)Nc2ccccn2)cc1[N+](=O)[O-] | 6.9
CCOc1ccc(-n2c(SCC(=O)Nc3cc(OC)c([N+](=O)[O-])cc3C)nc3ccccc32)cc1 | 8.0
CN(C)c1cccc(C(=O)NCc2ccc(Cl)cc2)c1 | 7.0
COc1ccc(NC(=O)COc2cccnc2[N+](=O)[O-])cc1OC | 13.4
N=c1c2c(-c3ccccc3)c(-c3ccccc3)n(Cc3ccco3)c2ncn1CCO | 8.8
CCOC(=O)c1sc(Nc2nc3ccc(OC)cc3s2)cc1C | 19.2
O=C(Oc1ccc(-c2ccccc2)cc1)C1C2CCCCC21 (configuration not stated) | 18.5
Cc1ccc(Cn2nc(C)c(NC(=O)C3(C)CC3(Br)Br)c2C)cc1 (configuration not stated) | 14.7
COc1ccc(-c2[nH]ncc2N=Nc2ccccc2)cc1 | 15.6
CC(=O)Nc1cccc(NC(=S)Nc2cccc(Cl)c2Cl)c1 | 14.5
Cc1ccc(C(=O)COC(=O)c2c(C)cc(=O)oc2C)cc1[N+](=O)[O-] | 13.8
CS(=O)(=O)Oc1ccc(Br)c2cccnc12 | 20.5
CCOc1ccc(NC(=O)CC2C(=O)N(CC)C(=S)N2NC(=O)c2ccncc2)cc1 (configuration not stated) | 31.0
CCCNC(=O)NC(=O)CSc1nncs1 | 11.2
COC(=O)c1cnc(Oc2ccc(NC(=O)NC(=O)c3c(OC)cccc3OC)cc2)cc1C(F)(F)F | 13.6
C/C(=N\Nc1nc2ccccc2s1)c1cccs1 | 9.5
Cc1ccc(S(=O)(=O)c2cnc(-c3ccccc3)nc2N2CCN(C)CC2)cc1 | 11.8
CN1CCN(c2nc(-c3ccc(Cl)s3)cs2)CC1 | 13.1
CN(c1cccc(NS(=O)(=O)c2ccccc2)c1)S(C)(=O)=O | -3.3
COc1ccc(CN2CC(C(=O)NCCC(C)C)CC2=O)cc1 (configuration not stated) | 17.4
C=C(C)Cn1c(SCCN2CCOCC2)nc2c1c(=O)[nH]c(=O)n2C | 11.4
CCOC(=O)Cc1c(C)nc(SC)[nH]c1=O | 13.3
Cc1ccc(CN2CCN(Cc3ccncc3)CC2CCO)o1 (configuration not stated) | 7.2
c1ccc2c(NC3C4CC5CC(C4)CC3C5)nc(N3CCOCC3)nc2c1 (configuration not stated) | 14.2
Cc1cccc(-n2cnc(C(=O)N3CCN(C)CC3)c2)n1 | 9.1
OCCCNc1nc(-c2ccc(Cl)cc2)nnc1-c1ccccc1 | 13.8
CC(NS(=O)(=O)c1ccc(Br)cc1)C(=O)NCCc1ccccc1 (configuration not stated) | 11.9
COc1ccc(N2C(=O)/C(=C3/C=CC=CN3C)SC2=S)cc1 | -11.6
CCCC12CN3CCN(CC(C3)/C1=N\NC(=O)c1ccc(C(C)(C)C)cc1)C2 | 10.7
Cc1ccn2cc(-c3cccc(NC(=O)c4cccs4)c3)nc2c1 | 11.2
COc1cc(C2NC(=O)C(C#N)=C(S)N2c2ccccc2)ccc1OC(C)C (configuration not stated) | 19.4
Cc1[nH]ncc1-c1ccccc1Cl | 7.0

More results follow:
compound | Biofilm kill mix
COC(=O)C1=C(C)NC(c2c(O)ccc3ccccc23)C(C(=O)OC)=C1C (configuration not stated) | 7.0
COCCCNC(=S)N1CCN(C(=O)C(=O)Nc2ccc(C(=O)OC)cc2)CC1 | 14.5
Cn1c(=O)n(C)c2cc(/C=C(/C#N)C(=O)NCc3ccco3)ccc21 | 13.2
O=C(O)COc1ccccc1/C=N/NC(=O)c1cc(-c2ccc(F)cc2)nc2ccccc12 | 13.9
Cc1cc(C(=O)N2CCC(C(=O)O)CC2)c(C)o1 | 24.5
COc1cc(C(=O)OCC(=O)NCc2ccc(F)cc2)cc(NC(=O)c2cccs2)c1OC | 13.8
CN1CCC(=C2c3ccccc3C=Cc3ccccc32)CC1 | 8.2
O=C(NC(=S)Nc1ccc(N2CCOCC2)cc1)c1cccc([N+](=O)[O-])c1 | 4.3
COc1ccc(OC)c(CNC(=O)Cc2c(C(=O)O)[nH]c3ccc(Cl)cc23)c1 | 6.4
CN1CCN(C(=O)C2=C[C@@H](c3ccc(C(F)(F)F)cc3)C[C@@H](OCCCCO)O2)CC1 | 14.7
